Screens from PubChem BioAssay.
Rango release inh – inhibition of RanGTP-driven Rango-importin beta dissociation; Biochemical FRET Rango-importin beta, RanGTP-induced dissociation; Potency, µM (titrated, usually from 46.1 µM), for inactives: top-dose activity change, negative = inhibition; 0.071% of 340,000 active; active means falling FRET ratio curve, often poorly fitted, with flat reads before Ran was added; inconclusive means other falling curves, or compound fluorescence or quenching; inactive means flat or rising ratio curve;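 further: potency means the concentration at half of the fitted maximal effect; % of control where 0% means no effect; nearly all actives have a fitted effect of over 45% in size; -100% = wells without RanGTP and RCC1; the record marks most hits as doubtful in a second field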
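Rango FRET biosensor (snurportin-1 IBB flanked by N-terminal EYFP and C-terminal CFP10) at 0.1 uM, with 0.25 uM importin beta in PBS, 1mM DTT, 0.02% Tween-20, 0.1% BSA. 0.6 uM Ran, 2mM GTP and 0.2 uM RCC1 were then added for 45 min at room temperature. Inhibition read as loss of FRET rise.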
Rango-impB inh – prevents formation of the Rango-importin beta complex | Q14974 | Rango CFP/YFP FRET sensor + importin beta, 45 min | Potency, µM (titrated, usually from 92.2 µM), for the others: top-dose inhibition of complex formation | 0.031% of 340,000 active; active = rising FRET ratio curve, often small or poorly fitted; inconclusive = mostly compound fluorescence or quenching in the first reads; inactive = flat curves in all reads;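 further: potency means the concentration at half of the fitted maximal effect; 0% = DMSO wells and 100% = buffer wells lacking importin beta; nearly all actives have a fitted effect of over 15% in size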
Target sequence (Q14974 whole entry, looked up): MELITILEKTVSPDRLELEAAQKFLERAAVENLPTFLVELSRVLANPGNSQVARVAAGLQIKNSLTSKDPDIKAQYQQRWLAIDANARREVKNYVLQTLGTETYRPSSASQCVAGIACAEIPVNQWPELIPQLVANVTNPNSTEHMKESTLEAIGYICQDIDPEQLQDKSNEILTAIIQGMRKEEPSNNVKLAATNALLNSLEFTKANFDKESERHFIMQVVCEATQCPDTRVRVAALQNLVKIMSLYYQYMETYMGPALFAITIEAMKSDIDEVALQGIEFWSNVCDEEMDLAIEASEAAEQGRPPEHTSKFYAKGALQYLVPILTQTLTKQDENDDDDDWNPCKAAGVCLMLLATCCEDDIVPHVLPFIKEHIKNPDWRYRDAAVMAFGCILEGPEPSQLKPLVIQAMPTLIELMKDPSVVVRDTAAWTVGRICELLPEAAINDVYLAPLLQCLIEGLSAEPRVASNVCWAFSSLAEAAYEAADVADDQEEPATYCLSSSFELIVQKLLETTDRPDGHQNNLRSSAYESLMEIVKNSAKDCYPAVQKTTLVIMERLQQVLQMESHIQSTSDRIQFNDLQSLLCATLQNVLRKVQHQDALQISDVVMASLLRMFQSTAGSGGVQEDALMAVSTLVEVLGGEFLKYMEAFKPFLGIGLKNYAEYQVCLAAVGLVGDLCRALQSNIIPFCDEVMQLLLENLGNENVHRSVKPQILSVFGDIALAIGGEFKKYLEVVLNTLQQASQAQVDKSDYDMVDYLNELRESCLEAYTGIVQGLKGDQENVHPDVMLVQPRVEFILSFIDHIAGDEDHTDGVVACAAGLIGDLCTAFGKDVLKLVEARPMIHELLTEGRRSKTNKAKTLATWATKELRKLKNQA
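Inhibition scored from the CFP 486 nm/YFP 530 nm FRET ratio 45 min after adding 0.125 microM importin beta to 50 nM Rango biosensor preincubated 5 min with compound (room temperature, PBS with DTT, Tween-20, BSA). No-importin wells as positive control.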
miR-21 reporter – miR-21 reporter, rising signal | 340,000 tested, under 10 active | HeLa miR-21 FLuc reporter, luciferase, 48 h | Potency, µM (top dose mostly 38.3 µM), for inactives: top-dose reporter change, positive = more light; active = well fitted rising curve with a large enough effect; inconclusive = small, poorly fitted or top-dose-only effect; inactive = no such curve, though single readings can be large or run the other way;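 further: % of control where 0% means no effect; miR-21 action dims this reporter so a rising signal means less miR-21 action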
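Luminescence from a firefly luciferase reporter carrying a miR-21 binding site downstream, stably expressed under a CMV promoter in HeLa cells that make miR-21 endogenously, reports miRNA modulation after 48 h compound exposure up to approximately 40uM final.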
GLA inh pH 4.5 – blocks human alpha-galactosidase A at pH 4.5; P06280; purified enzyme, 4-MU-alpha-Gal fluorescence, pH 4.5; activity change, negative = inhibition, % at 105 µM; 230,000 tested, under 10 active; AID 1467; inconclusive = small, poorly fitted or top-dose-only inhibition, or a rising curve; inactive = flat fitted curve, though single readings scatter; no compound was filed as active;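 further: 0% = full activity with enzyme and -100% = basal without enzyme; dose as in the result columns while the protocol names 77 µM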
* marks the source's active call; other numbers are inactive results; ? = inconclusive; · = not tested or not shown; & = joins results of further samples; [ ] = remark or other dose.

SMILES | Rango release inh | Rango-impB inh | miR-21 reporter | GLA inh pH 4.5
COc1cccc(C(=O)C2CCCN(Cc3cccn3-c3ccccn3)C2)c1 (centres undefined) | -2% | -2.1% | 19% | -5
O=C(NCc1csc(-c2ccccc2)n1)c1cc(F)cc2c1OCOC2 | 21% | -0.2% | -54% | 0
Cc1cccc([C@H]2[C@@H]3C=CC[C@@H](C)[C@@H]3C(=O)N2Cc2ccccc2)c1 | 1% | 0.6% | · | -3
O=C(Nc1ccccc1)N1CCN2C(=O)c3ccccc3C12c1ccccc1 (centres undefined) | 0% | ? | 9% | 5
CCc1ccc(C2NC(c3ccc(CC)cc3)C([N+](=O)[O-])C(C)(C)C2[N+](=O)[O-])cc1 (centres undefined) | -10% | -3.1% | -4% | 1
Cc1noc(C)c1S(=O)(=O)N(C)C[C@H]1Oc2c(NC(=O)NC3CCCCC3)cccc2C(=O)N([C@H](C)CO)C[C@@H]1C | 14% | 1.6% | · | ·
C=CCNC(=S)Nc1sc2c(c1C(N)=O)CCCC2 | -20% | -0.7% | -19% | -6
COc1ccc(NC(=O)/C(Cl)=C(/Cl)S(=O)(=O)Cc2ccc(C)cc2)cn1 | -11% | 2.7% | ? | 5
Cc1cc2c(ncn2C)c(NS(=O)(=O)c2ccc(F)cc2)c1C | 0% | 6.0% | 2% | 2
Cc1ccc(S(=O)(=O)Oc2ccc(/C=C3/C(=N)N4C(=NC3=O)SN=C4S(C)(=O)=O)cc2)cc1 | 2% | 0.5% | -5% | ·
O=C(c1ccccc1)c1ccc(OCC(=O)N2CCOCC2)cc1 | -5% | -3.1% | -12% | -4
Cc1ccc(S(=O)(=O)c2nnn3c2nc(NC2CCN(Cc4ccccc4)CC2)c2ccccc23)cc1C | ? | ? | 8% | ·
CCc1c(C2(O)CCCCC2)[nH]c2ccc(C#N)cc12 | -12% | -2.7% | · | ·
CCCC[C@@H]1CNCCN1CC1(c2ccccc2)CC1 | 0% | -0.9% | · | ·
CC(=O)N1CCN(S(=O)(=O)c2cccc(C(=O)OCC(=O)N(Cc3ccccc3)C(C)(C)C)c2)CC1 | 4% | -2.0% | · | ·
c1ccc(CCCc2nc(-c3cccnc3)no2)cc1 | 28% | -4.4% | -38% | ·
COc1ccc(NC(=O)CCN2C(=O)[C@@H]3[C@H](C2=O)[C@H]2C=C[C@@H]3C2)cc1 | 8% | 2.7% | -10% | -3
Cc1cccc(NC(=O)c2ccc(S(=O)(=O)N3CCC(C)CC3)cc2)n1 | -10% | 3.3% | 13% | ·
O=C(CSc1ncccc1-c1nc2ccccc2[nH]1)Nc1ccc2c(c1)OCCO2 | 2% | 2.7% | -35% | -3
COc1ccc(OC)c(S(=O)(=O)Nc2cccnc2)c1 | 14% | 0.1% | 0% | 3
Cc1cccc(C2Nc3cccc4cccc(c34)N2)c1 | 1% | 3.7% | 2% | ·
COc1ccc(NC(=O)CSc2nc(O)cc(=O)n2-c2ccccc2)cc1 | 1% | 5.7% | -1% | ·
CCCC[N+](CC#Cc1ccccc1)(CCCC)CCCS(=O)(=O)[O-] | -4% | -2.6% | 0% | 2[21.1 µM]
Cc1ncsc1CCC(=O)N1CCCC(Nc2ccc(F)c(F)c2)C1 (centres undefined) | 30% | -1.6% | -4% | ·

Record cards, as listed above. Values in the order: Rango release inh	Rango-impB inh	miR-21 reporter	GLA inh pH 4.5
Profile of Cc1ncsc1CCC(=O)N1CCCC(Nc2ccc(F)c(F)c2)C1 (centres undefined) : 30%	-1.6%	-4%	·
Profile of CCCC[N+](CC#Cc1ccccc1)(CCCC)CCCS(=O)(=O)[O-] : -4%	-2.6%	0%	2[21.1 µM]
Profile of Cc1cccc(C2Nc3cccc4cccc(c34)N2)c1 : 1%	3.7%	2%	·
Profile of c1ccc(CCCc2nc(-c3cccnc3)no2)cc1 : 28%	-4.4%	-38%	·
Profile of COc1ccc(OC)c(S(=O)(=O)Nc2cccnc2)c1 : 14%	0.1%	0%	3

(continued)
SMILES | Rango release inh | Rango-impB inh | miR-21 reporter | GLA inh pH 4.5
CC(C)(C)n1nc2c(c1NC(=O)Cc1ccccc1)CS(=O)(=O)C2 | -13% | 3.2% | 1% | 3
COc1c(/C=N/Nc2nc(N3CCCCC3)nc(N3CCCCC3)n2)cccc1[N+](=O)[O-] | -18% | -6.2% | -2% | -11
COc1cc(C(=O)NNC(=S)NC(=O)c2ccccc2C)cc(OC)c1OC | 17% | 5.8% | 16% | -1
Cc1ccc(-c2csc(NC(=S)NC(=O)c3cc4ccccc4o3)n2)cc1 | 1% | 0.1% | 0% | -7
O=C(Nc1ccccc1C(=O)N/N=C/c1ccccc1)c1ccco1 | -17% | 3.2% | -24% | ·
Cc1cccc(N2CCN(C(=O)c3ccoc3C)CC2)c1C | -9% | -2.5% | 0% | 5
CN1CCN(/N=C/c2ccc(Br)cc2)CC1 | 9% | -0.3% | -63% | 12
Fc1ccc(-n2nnc(-c3ccnc4ccccc34)n2)cc1 | 1% | -2.3% | -48% | 6
O=S(=O)(c1ccc(F)cc1)N1CCN(CC(O)COc2ccccc2F)CC1 (centres undefined) | -28% | -1.4% | 1% | ·
O=C1CCCN1CN1CCCCC1 | 6% | 0.7% | -1% | 9
O=C(Oc1cccnc1)c1cc(S(=O)(=O)N2CCOCC2)ccc1Cl | 8% | -3.6% | -1% | 3
COc1ccc(C(=O)Sc2nncc3ccccc23)cc1 | -7% | -0.7% | -12% | 10
CCOC(=O)Cc1csc(SCc2cc(=O)oc3cc(O)ccc23)n1 | ? | ? | 0% | 4
O=C(OCC(=O)N1CCN(S(=O)(=O)c2ccc(Cl)cc2)CC1)C1CCC1 | -5% | -2.9% | · | ·
CN1CCn2c1nc(N1CCCCC1)nc2=O | -5% | -0.4% | -3% | 2
CCOC(=O)c1cnc(SCc2ccc(C)cc2)nc1N | 14% | 4.9% | -62% | 0
Cc1nn(C)c2nc(-c3cccs3)cc(C(F)(F)F)c12 | -1% | 0.8% | -2% | 0
COc1ccc(Br)cc1C(=O)N/N=C/c1ccc2c(c1)n(C)c(=O)n2C | -2% | -3.4% | -5% | ?
COCCN1Cc2cccc(C(=O)Nc3ccc(-c4nc5ccccc5[nH]4)cc3)c2C1=O | ? | 0.0% | -33% | -9
CN(C)C(CNC(=O)C1CCN(S(=O)(=O)c2cc(Cl)ccc2Cl)CC1)Cc1ccccc1 (centres undefined) | 9% | 0.5% | · | ·
O=C(c1ccc(F)cc1)N1CCN(c2ncccn2)CC1 | -16% | 3.0% | -2% | 3
C=CCOc1ccc(C2/C(=C(\O)c3ccc4c(c3)OCCO4)C(=O)C(=O)N2CCCN2CCOCC2)cc1 (centres undefined) | 0% | 0.6% | 0% | ·
Cc1ccc(OCC(=O)N/N=C\c2ccc(C)o2)c(C)c1 | 18% | 0.3% | -1% | 10
COC(=O)c1ccc(NC(=O)c2ccc3c(c2)C(=O)N(C)C3=O)cc1 | -13% | -6.3% | 3% | ·
O=C(NC1CCCC1)C(c1ccc(F)cc1)N(C(=O)c1csnn1)C1CC1 (centres undefined) | 10% | -1.3% | -1% | ·
COc1ccc(S(=O)(=O)N2CC(C)N(C(=O)N(C)C)C2C)cc1 (centres undefined) | -10% | 0.8% | -1% | ·
COC(=O)c1ccccc1NC(=O)CN(Cc1ccccc1)S(C)(=O)=O | 6% | -2.0% | 1% | 1
Nc1nnc(-c2cccc(Cl)c2Cl)c(N)n1 | -1% | -5.8% | -6%&0% | -5&5&-1
COc1ccc(-c2noc(-c3ccoc3C)n2)cc1OC | -9% | 2.5% | -2% | 2
CCn1c(SCC(=O)N2CCCc3ccccc32)nc2ccccc2c1=O | 1% | 2.1% | -3% | -13
Cc1cc(Nc2cccc(Cl)c2)nc(N2CCOCC2)n1 | 23% | 4.4% | -18% | 2
O=C(CSc1nccn1-c1ccc(F)cc1)NCc1ccc2c(c1)OCO2 | -5% | -4.9% | -3% | 8
Cc1ccc(/C=C/C(=O)Nc2ccc(O)c3c(=O)cc(-c4ccccc4Cl)oc23)cc1 | -3% | -4.3% | 1% | -9
O=C(CCNC(=O)C1CCN(S(=O)(=O)c2ccc(F)cc2)CC1)NCCc1ccc(Cl)cc1 | 17% | 0.4% | 11% | ·
CCOC(=O)c1nnn(-c2nonc2N)c1-c1ccc(OCC)cc1 | 22% | -0.3% | 0% | -3
COc1ccc(C2CC(=O)N3CN(c4ccccc4F)CSC3=C2C#N)cc1OC (centres undefined) | ? | ? | -2% | -7
COc1ccc(NC(=O)CSc2nc3[nH]c(=O)cc(O)c3s2)cc1OC | 22% | -2.6% | · | ·
Cc1cc(C)n(-c2nc3ccccc3n3c(C)nnc23)n1 | -6% | 1.0% | 0% | 0
COc1ccc(C(=O)C2CCCN(C(=O)c3ccnn3C)C2)cc1OC (centres undefined) | 11% | -1.3% | -8% | ·
CC(=O)Nc1cccc(-c2nc3ccc(NC(C)=O)cc3[nH]2)c1 | 4% | 5.4% | 8% | 3
COc1ccc(N2C(=O)C(OC(C)=O)C2c2ccc(C)cc2)cc1 (centres undefined) | ? | ? | -5% | -16
CCN(CC)C(=O)COc1coc(CN2CCN(Cc3ccccc3)CC2)cc1=O | 1% | 0.7% | -2% | ·
C=CCNC(=O)CSc1nc2sccc2c(=O)n1-c1ccccc1 | 1% | 5.3% | -10% | ·
Cc1cc(Nc2ccccc2)n2nc(C)c(-c3ccccc3)c2n1 | -9% | 0.8% | 2% | -9
O=C(/C=C/C=C/c1ccccc1)c1ccco1 | 0% | ? | -37% | -6
O=C(NCCCN1CCOCC1)c1cc2cc(Br)ccc2oc1=O | -17% | 0.0% | -1% | -5
Cc1ccccc1CN(c1ccc(C(=O)N2CCCC2)cc1)S(C)(=O)=O | -9% | -0.3% | -10% | -4
Cc1ccc(-c2nc3ccccc3s2)cc1NC(=O)c1cc(-n2cnnc2)ccc1Cl | -14% | 5.8% | -40% | 5
CCc1ccc(N2CC(C(=O)Nc3ccc(F)cc3)CC2=O)cc1 (centres undefined) | 5% | -6.0% | 1% | ·
CSCc1nc2sc(C(=O)Nc3nc(C)cs3)c(C)c2c(=O)[nH]1 | -15% | ? | -48% | -12
N/C(=N\O)c1cccc(CS(=O)(=O)c2ccccn2)c1 | 2% | 0.1% | 0% | 3
CCOC(=O)C1CCN(S(=O)(=O)CCNC(=O)c2cccc(OC)c2)CC1 | 9% | -1.0% | · | ·
CC(=O)Nc1ccc(S(=O)(=O)NCc2ccc(C(=O)NCc3ccc4c(c3)OCO4)cc2)cc1 | -7% | -1.7% | -3% | -13
CCOc1ccc(-c2nnc(SCC(=O)N3CCCC3)o2)cc1 | -14% | ? | -8% | ·
OCCC1CN(Cc2ccc3nsnc3c2)CCN1C1CCCC1 (centres undefined) | -4% | 5.5% | -1% | -3
CN(CCOc1ccccc1)C(=O)c1cc(-c2ccco2)nc2ccccc12 | -25% | ? | · | ·
CCS(=O)(=O)n1nc(-c2ccc(OC)cc2)nc1N | 2% | -0.4% | -20% | 8
COc1ccc(C(=O)COc2ccc3ccc(=O)oc3c2)c(OC)c1 | -5% | -0.2% | -11% | ·
O=C(NNC1CC(=O)N(c2ccc3c(c2)OCCO3)C1=O)c1ccccc1 (centres undefined) | -13% | 0.0% | -7% | -9
CC(C)OP(=O)(c1ccc(N(C)C)cc1)C(Nc1ccccc1)c1ccccc1 (centres undefined) | 13% | 1.3% | 15% | -22

Remaining list, next part:
SMILES | Rango release inh | Rango-impB inh | miR-21 reporter | GLA inh pH 4.5
Cc1cc(C)n(C(=O)c2ccc(C)c(Br)c2)n1 | -1% | 1.1% | -4% | ·
COc1cccc(C2N(c3ccc(Cl)c(Cl)c3)C(=O)C3CCCN32)c1OC (centres undefined) | -13% | -2.2% | -8% | 6
CCOc1cc(/C=C2\SC(=Nc3ccc(F)cc3)N(c3ccc(F)cc3)C2=O)ccc1OCC(=O)O | · | · | -5% | 5
CCOc1ccc(/C=N/Nc2ccc(Cl)nn2)c(O)c1 | -3% | -2.0% | -11% | ·
CC(C)N(C(=O)CSc1nnc(-c2ccc3c(c2)OCO3)n1C)C(C)C | -2% | -0.7% | -1% | 2

A portion of the library, so the mix of outcomes need not match the whole.
